# Compound activity (PubChem)
# RE007 growth inh: less growth of the S. pombe RE007 Vpr strain | S. pombe RE007 Vpr strain, BacTiter-Glo ATP luminescence, 24 h; control for the full effect not named in the record | Potency, µM (series often up to 92.2 µM), without a hit: at the highest dose activity change, negative = less growth | actives 0.21% (n = 360,000); active = well fitted falling curve with a large enough effect; inconclusive = small, poorly fitted or top-dose-only effect; inactive = no such curve, though single readings can be large or run the other way;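 further: on the % scale 0 is the no-effect control and ±100 the full control effect; nearly all actives have a fitted effect of over 50% in size; the assay follows cell death caused by Vpr and the record does not say whether a fall means rescue or toxicity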
#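 Fission yeast RE007 carrying one integrated HIV-1 vpr copy, seeded at OD 0.01 in PMG+AL medium with 23 nL pinned compound. Grown 24 h at 30 degrees; viability read by BacTiter-Glo luminescence after 5 min.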
# NS1 inh: influenza NS1 inhibition; S. cerevisiae slowed by influenza A NS1, growth recovery by OD600; Potency, µM (top dose mostly 46.1 µM), inactives show top-dose activity, positive = more growth; actives 0.4% (n = 270,000); AID 2326; active means well fitted rising curve with a large enough effect; inconclusive means small, poorly fitted or top-dose-only effect; inactive means no such curve, though single readings can be large or run the other way; further: nearly all actives have a fitted effect of over 50% in size
#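 Compounds were scored for reversing the slow growth caused by influenza A NS1 in S. cerevisiae, measured by optical density at 600 nm. Assay medium contained 2% galactose at pH 6.0; NS1-free yeast of the same strain were the positive control.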
# SARS PLpro yeast: inhibitors of SARS-CoV papain-like protease in yeast | S. cerevisiae expressing SARS-CoV PLpro, growth rescue; control for the full effect not named in the record | AID 485353 | Potency, µM (top dose mostly 32.9 µM), without a hit: at the top dose activity, positive = growth rescue | actives 0.19% (n = 330,000); active means well fitted rising curve with a large enough effect; inconclusive means small, poorly fitted or top-dose-only effect; inactive means no such curve, though single readings can be large or run the other way; further: 0% is about no effect; nearly all actives have a fitted effect of over 55% in size; growth read by luminescence after 48 h
# Cruzain Triton: blocks cruzain activity in presence of Triton detergent. Potency, µM, without a hit: max response, negative = inhibition, hits mostly inhibitors. actives 0.43% (n = 200,000). AID 1478. purified cruzain, Z-FR-AMC fluorescence, 0.01% Triton. P25779;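 further: plate controls were neutral wells for no effect and buffer without enzyme for full effect; nearly all actives have a fitted effect of over 40% in size; top concentration of the series not given in the record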
# Target sequence (P25779 123-467 limits assumed): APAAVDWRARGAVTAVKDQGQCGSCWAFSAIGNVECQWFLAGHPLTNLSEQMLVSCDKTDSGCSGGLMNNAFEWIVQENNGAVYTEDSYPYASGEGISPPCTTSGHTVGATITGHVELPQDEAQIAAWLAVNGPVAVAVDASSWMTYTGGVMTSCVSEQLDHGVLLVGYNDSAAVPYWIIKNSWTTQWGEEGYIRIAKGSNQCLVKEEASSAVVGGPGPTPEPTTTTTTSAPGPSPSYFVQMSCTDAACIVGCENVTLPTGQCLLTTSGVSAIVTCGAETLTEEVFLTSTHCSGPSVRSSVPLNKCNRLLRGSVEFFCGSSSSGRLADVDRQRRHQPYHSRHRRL
#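 15 min RT preincubation of 1.5 nM cruzain with compound, then 2 uM Z-FR-AMC added; kinetic AMC fluorescence, 60 s delta. Triton X-100 0.01%, pH 5.5.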
# LASV entry inh: inhibitors of Lassa virus binding or cell entry. Lassa virus pseudotype entry inhibition, cell reporter; control for the full effect not named in the record. Potency, µM (top dose mostly 37.9 µM), for inactives: top-dose activity change, negative = inhibition, actives largely listed as inhibitors. actives 1.2% (n = 300,000); active means well fitted inhibition curve with a large enough effect; inconclusive means small, poorly fitted or top-dose-only effect, or effect the other way; inactive means flat fitted curve, though single readings scatter; tested in HEK293 cells; further: on the % scale 0 is the no-effect control and ±100 the full control effect; nearly all actives have a fitted effect of over 50% in size; luciferase read-out
# StopGo reporter: FMDV 2A StopGo reporter, luciferase signal; AID 1159524; actives 1.2% (n = 410,000); human cells with a luciferase reporter of 2A StopGo recoding; control for the full effect not named in the record; Potency, µM (top dose mostly 57.9 µM), inactives show at the top dose signal change, negative = less light; active = well fitted falling curve with a large enough effect; inconclusive = small, poorly fitted or top-dose-only effect; inactive = no such curve, though single readings can be large or run the other way; tested in HEK293T cells; further: on the % scale 0 is the no-effect control and ±100 the full control effect; nearly all actives have a fitted effect of over 45% in size; luciferase light after 4 h
# Cruzain noTriton: blocks cruzain activity in detergent-free assay | P25779 | Potency, µM, without a hit: max response, negative = inhibition, hits mostly inhibitors | purified cruzain, Z-FR-AMC fluorescence, no detergent | actives 2.3% (n = 200,000);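 further: plate controls were enzyme without inhibitor for no effect and buffer without enzyme for full effect; nearly all actives have a fitted effect of over 40% in size; top concentration of the series not given in the record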
#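 Purified cruzain at 1.5 nM, pre-incubated 15 min with compound at room temperature in 100 mM sodium acetate pH 5.5, 5 mM DTT, 0.00005% Triton X-100. Reaction started with 2 uM Z-FR-AMC; AMC fluorescence increase over 60 s gives rate.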
# MARV entry inh: inhibitors of Marburg virus binding or cell entry; Marburg virus pseudotyped entry inhibition, cell reporter; control for the full effect not named in the record; about a third of the inactives were read at about 46 µM; actives 1.8% (n = 300,000); Potency, µM (highest dose often 37.8 µM), without a hit: top-dose activity change, negative = inhibition, actives largely listed as inhibitors; active = well fitted inhibition curve with a large enough effect; inconclusive = small, poorly fitted or top-dose-only effect, or effect the other way; inactive = flat fitted curve, though single readings scatter; tested in HEK293 cells; about a fifth of its hits are not listed in these tables; further: on the % scale 0 is the no-effect control and ±100 the full control effect; luciferase read-out
# An asterisk follows results filed as active; ? = inconclusive; / = not tested or not shown; & = joins results of further samples; [ ] = remark or other dose. Unless noted, the call rests on the fitted dose curve; in most records, active means well fitted curve in the direction sought with a large enough effect; inconclusive means small, poorly fitted or top-dose-only effect, or another doubt; inactive means no such curve, though single readings can be large; an effect the other way counts as inactive or inconclusive. Potency means the concentration at half of the fitted maximal effect.
SMILES,RE007 growth inh,NS1 inh,SARS PLpro yeast,Cruzain Triton,LASV entry inh,StopGo reporter,Cruzain noTriton,MARV entry inh
NS(=O)(=O)c1cccc(NC(=O)COC(=O)CCSc2ccccc2)c1,16%,2%,-23%,-19%,1%,5%,9%,-1%
Cc1ccc(CNC(=O)Nc2ccc(OC(F)(F)F)cc2)n1C,-11%,6%,0%,/,/,-4%,/,/
O=C(NCc1ccccc1)c1ccc2c(c1)OCCO2,41%,-6%,-7%,0.7%,13%,28%,-6%,14%
CCOc1ccc2oc(=O)cc(CN3CCN(c4ccccc4)CC3)c2c1,/,/,/,-2.1%,-16%[46.1 µM],?,-13%,-22%[46.1 µM]
CCOC(=O)[C@@]12C[C@@H]1/C(=N/O)c1ccccc1O2,/,/,/,-1.5%,/,8%,8%,0%
Cc1ccc2nc3c(c(C(=O)OCC(=O)NC4CCS(=O)(=O)C4)c2c1)CCCC3 (stereo unspecified),1%,4%,-2%,/,3%,-18%,/,-1%[46.1 µM]
COc1ccc(Cl)cc1NC(=O)C(C)N1CCN(c2ccccn2)CC1 (stereo unspecified),1%,-39%,-4%,/,/,?,/,/
CC(C)[C@H](NC(=O)c1ccc(Cl)c([N+](=O)[O-])c1)C(=O)O,9%,2%,0%,/,/,1%,/,/
CCOC(=O)N1CCN(C(=O)c2ccc(S(=O)(=O)NCc3ccco3)cc2)CC1,-10%,/,7%,/,-9%,-5%,/,-1%[46.1 µM]
Cc1ccc(NC(=O)c2cncc(Br)c2)c([N+](=O)[O-])c1,-16%,2%,7%,-2.4%,?,27%,-7%,?
O=C(Nc1ccccc1C(=O)NC(Cc1ccccc1)C(=O)NC1CCCCCC1)c1ccccc1 (stereo unspecified),-8%,-1%,0%,-4.7%,-29%,-16%,?,?
COc1cc2c(cc1OC)CN(C(=O)Cc1c(F)cccc1Cl)CC2,-7%,-14%,15%,/,-10%,-7%,/,-8%[46.1 µM]
Cc1ccc(S(=O)(=O)NC2=C(N3CCN(c4ccccc4F)CC3)C(=O)c3ccccc3C2=O)cc1,-24%&1%,16%,-2%,-0.1%,?,-23%&-10%,?,?
Cc1oc2ccc(O)c(CN3CCOCC3)c2c1C(C)O (stereo unspecified),1%,5%,-5%,-2.2%,-1%,-6%,-8%,4%
COc1ccc(OC)c(NC(=O)Cn2nc(C)c3ccccc3c2=O)c1,-13%,3%,4%,/,/,15%,/,/
COCCCNC(=O)c1ccc(NS(C)(=O)=O)cc1,0%,6%,/,-0.7%,?,-24%,4%,10%
Cc1c(C(=O)N2CCN(c3ccc(C(F)(F)F)cn3)CC2)oc2ccccc12,-3%,-54%,-16%,-9.1%,?,-23%,4%,1%
CCOC(=O)CN1C(=O)C2(OCCCO2)c2cc(Br)ccc21,-18%,-14%,1%,/,10%,-12%,/,7%
COc1ccc(OC)c(N2Cc3cc(C)c(C)cc3C2)c1,-1%,-18%,?,0.7%,-22%,0%,16µM*,?
Cc1occc1C(=O)N1CCN(C(c2ccccc2)c2ccccc2)CC1,-2%[3.69 µM],-11%,-30%,2.0%,-24%,-21%,-3%,?
O=c1cc(-c2ccccc2)c2cc3c(cc2[nH]1)OCCO3,4%,/,0%,/,-9%[46.1 µM],-25%,/,?
c1ccc(N2CC3CCc4ccccc4C3=N2)cc1 (stereo unspecified),-4%,1%,0%,/,?,-2%,/,?
O=C(NCCCN1CCOCC1)c1cn(-c2ccccc2)nc1-c1cccs1,-7%,-1%,4%,1.4%,14%,0%,-6%,?
CCC(C)NC(=O)C1(N2C(=O)c3ccccc3C2=O)CCCC1 (stereo unspecified),-1%,/,/,/,9%,1%,/,7%
CC(=O)Nc1ccccc1NS(=O)(=O)c1cccc([N+](=O)[O-])c1,5%,3%,1%,/,16%,-4%,/,-5%[46.1 µM]
SMILES,RE007 growth inh,NS1 inh,SARS PLpro yeast,Cruzain Triton,LASV entry inh,StopGo reporter,Cruzain noTriton,MARV entry inh
O=C(N[C@H]1CCC(=O)N([C@H](CSc2ccccc2)Cc2ccccc2)CC1)OCc1ccccc1,-3%,-13%,13%,/,/,-4%,/,/
CC1(C)CC(c2nc(-c3ccc(Br)cc3)cs2)CCS1 (stereo unspecified),-4%,-3%,6%,-4.4%,0%,-15%,1%,-29%
CC1CCN(S(=O)(=O)c2ccc3[nH]ccc3c2)CC1,/,/,/,-0.4%,0%[46.1 µM],47%[activator],-1%,/
Nc1ccc(S(=O)(=O)NC(Cc2ccccc2)C(=O)O)cc1 (stereo unspecified),-10%,6%,-5%,/,/,0%,/,/
O=C(NCCCCNC(=O)c1ccco1)c1ccco1,28%,1%,-10%,3.4%,12%,12%,1%,8%
CC(C)(C)c1ccc(C(=O)NNc2ncnc3c2cnn3-c2ccc(Cl)cc2)cc1,/,/,/,0.7%,?,-13%,-1%,/
O=C(NCc1ccncc1)Nc1ccccc1F,12%,-4%,-1%,/,/,13%,/,/
COCCNC(=O)CSc1nnc(NC(=O)Nc2ccc(C)cc2)s1,/,/,/,-1.0%,0%[46.1 µM],34%[activator],10%,/
CCn1cc(C(=O)NCc2cccnc2)c2cc(OC)c(OC)cc2c1=O,14%,-5%,-2%,-4.7%,1%,2%,-24%,8%
O=C(CCS(=O)(=O)c1cccc2nonc12)N1CCCc2ccccc21,16%,0%,4%,5.7%,0%,7%,0%,23%
CCc1ccc(-c2nc(CSCC(=O)N3CCN(c4ncccn4)CC3)c(C)o2)cc1,-1%,-82%,1%,-0.9%,/,22µM*,?,-7%
Cc1c(NC2=NC3(CCCCC3)Cc3ccccc32)c(=O)n(C)n1-c1ccccc1,-4%,-3%,-2%,0.6%,-8%,-19%,17%,-20%
CCCCNc1nnc(CCn2nc(C)c(Br)c2C)s1,19%,-8%,3%,0.2%,6%,-10%,-4%,?
C=CCC(NCc1ccco1)c1ccc(OC)cc1 (stereo unspecified),-3%,9%,?,7.5%,1%,-1%,6%,-22%
C=CCn1c(-c2cccn(Cc3ccc(Cl)cc3)c2=O)n[nH]c1=S,4%,8%,2%,1.0%,4%,-7%,-2%,8%
Cc1csc(NC(=O)CCn2c(=O)sc3ccccc32)n1,-14%,-8%,13%,-8.7%,9%,18%,11%,-1%
COCC(=O)N1CCC(Oc2ccc(C(=O)N3CCN(C)C[C@@H]3C(C)C)cc2)CC1,10%,4%,-2%,/,/,-7%,/,/
CCN(CC)CCNC(=O)Cn1nc(Cc2ccccc2)c2ccccc2c1=O,-3%,4%,9%,0.1%,10%,-2%,4%,0%
CN(Cc1ccccc1)C(=O)CCNS(=O)(=O)c1ccc2c(c1)oc(=O)n2C,-5%,3%,-13%,-1.3%,-10%,7%,2%,13%
COc1cc(-c2cc(=O)c3c(O)c(OC)c(OC)c(OC)c3o2)cc(OC)c1OC,-6%,5%,-1%,-0.7%,/,?,0%,/
CC(Oc1ccc2c3c(c(=O)oc2c1)CCCC3)C(=O)NCc1cccnc1 (stereo unspecified),2%,9%,?,/,/,-19%,/,/
CCCOc1ccc(/C(O)=C2/C(=O)C(=O)N(CCCOC)C2c2cccnc2)cc1 (stereo unspecified),9%,14%,0%,-6.1%,7%,5%,-9%,-6%
COc1ccc(C(=O)Nc2cccnc2)cc1,-6%,-15%,4%,1.1%,14%,/,2%,16%
Oc1ccc2ccccc2c1CN1CCCC1,-16%,1%,-1%,/,-15%,-2%,/,-5%[46.1 µM]
CC(=O)c1cc(-c2ccccc2)[nH]c1N1CCOCC1,-9%,-2%,7%,0.2%,-9%,/,-14%,10%
SMILES,RE007 growth inh,NS1 inh,SARS PLpro yeast,Cruzain Triton,LASV entry inh,StopGo reporter,Cruzain noTriton,MARV entry inh
Nc1nc(SCC(=O)Nc2cc(C(F)(F)F)ccc2Cl)[nH]c(=O)c1NC(=O)c1ccco1,-1%,16%,5%,/,12%,-22%,/,3%
COc1ccc(NC(=O)Cn2c(=O)n(Cc3ccco3)c(=O)c3sc4ccccc4c32)cc1Cl,/,/,/,-13%,-5%[46.1 µM],-7%,25µM*,4%[46.1 µM]
CCOc1ccc(/C=C/c2nc(C#N)c(Nc3ccc(OC)cc3)o2)cc1,/,/,/,-0.2%,-22%[46.1 µM],-10%,-25%,4%[46.1 µM]
O=C(Nc1nccs1)c1ccc(COc2ccccc2)o1,-15%,7%,6%,/,17%,55%[activator],/,?
CCN(CC)c1ncnc2c1cnn2C,3%,4%,2%,0.3%,17%,/,-12%,-5%
CC(C(=O)NCCCN1CCOCC1)n1cccc1C(=O)c1ccccc1 (stereo unspecified),-13%,3%,1%,-2.6%,-1%,2%,1%,9%
O=C1CCCN1CCC(=O)N1CCCC(CO)(Cc2ccccc2)C1 (stereo unspecified),-4%,-12%,-3%,/,14%[46.1 µM],27%,/,?
O=S(=O)(c1cccs1)N1CN(Cc2ccccc2)c2nc3ccccc3nc21,16%,-5%,-10%,-4.6%,19%,6%,?,1%
NNC(=S)NCCc1ccccc1,-17%,1%,0%,/,9%,43%[activator],/,11%
COc1ccc(-n2ccnc(NCCc3ccc(S(N)(=O)=O)cc3)c2=O)cc1Cl,/,/,/,-22%,-18%[46.1 µM],-17%,?,/

# Given with two lines to a compound: 5 of the compounds above.
# Below each SMILES: RE007 growth inh, NS1 inh, SARS PLpro yeast, Cruzain Triton, LASV entry inh, StopGo reporter, Cruzain noTriton, MARV entry inh
- Cc1ccc(S(=O)(=O)NC2=C(N3CCN(c4ccccc4F)CC3)C(=O)c3ccccc3C2=O)cc1
  -24%&1%, 16%, -2%, -0.1%, ?, -23%&-10%, ?, ?
- COc1ccc(-n2ccnc(NCCc3ccc(S(N)(=O)=O)cc3)c2=O)cc1Cl
  /, /, /, -22%, -18%[46.1 µM], -17%, ?, /
- Cc1oc2ccc(O)c(CN3CCOCC3)c2c1C(C)O (stereo unspecified)
  1%, 5%, -5%, -2.2%, -1%, -6%, -8%, 4%
- O=C(NCc1ccncc1)Nc1ccccc1F
  12%, -4%, -1%, /, /, 13%, /, /
- COc1cc2c(cc1OC)CN(C(=O)Cc1c(F)cccc1Cl)CC2
  -7%, -14%, 15%, /, -10%, -7%, /, -8%[46.1 µM]
